RN4220 kill – growth inhibition of S. aureus RN4220, primary screen, OD600; 16 h; inhibition, % (concentration not given with the values); hit rate 0.33% among 330,000;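 active = z-score of -3 or lower and OD600 up to 0.18 on both plates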;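 also: plate controls were untreated cells for no effect and reference antibiotic for full effect; stock transfer was 100 nL into about 80 µL; one replicate is shown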
PrP 5UTR inh – inhibition of PrP 5' UTR reporter expression; cell-based PrP 5' UTR mRNA reporter, plate reader; inhibition, % (no concentration beside the values); hit rate 0.35% among 340,000;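 active = every replicate at 50% or more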;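 also: 0 = median of the neutral control wells; tested in H4 reporter cells; numbers are from one replicate; inactives centre near -14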
Mtb hypoxia inh – PubChem AID 1159583; M. tuberculosis hypoxia-regulated fluorescent reporter, fluorescence; fluorescence inhibition, % (no concentration beside the values); hit rate 0.1% among 300,000;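 active = 35 to 45% if threefold the growth effect, above 45% if 1.5-fold the growth effect; inactive = the rest, general growth blockers included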;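 also: wells of about 50 µL received 100 nL stock; 0% = vehicle wells and 100% = reference inhibitor wells; whole bacteria with a GFP reporter of the hypoxia response; strong numbers were not always called active; many hits fall short of the cut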
Sa ugtP lethal – growth inhibition of ugtP-null S. aureus, primary screen, RN4220 ugtP deletion, OD600; hit rate 0.54% among 330,000; growth inhibition, % (concentration not given with the values); 16 h; some inactives read as strong as hits;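 active = z-score under -3 and OD600 up to 0.15 on both plates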;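 also: plate controls were untreated wells for no effect and antibiotic for full effect; wells of about 80 µL received 100 nL stock; the first replicate is given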
Autofluor counter – compound fluorescence in toxin protease inhibitor counterscreen; compound autofluorescence counterscreen, microsphere flow cytometry; hits give high values; fluorescence intensity (test concentration not listed); hit rate 3.1% among 360,000; AID 624483;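 active = at least 3 SD above the mean of all compounds, about 16000 in these data; inconclusive = too few beads counted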;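 also: 100 nL of 1 mM stock went into each well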
BJeLR viability – MLPCN primary cell-based screen for lethality selective to Ras in HRASV12 cells | inhibition, % (test concentration not listed) | AID 1554, 2009 | hit rate 0.17% among 300,000 | BJeLR (HRASV12) viability, CellTiter-Glo ATP luminescence, 48 h; reference of the scale not given here;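 active = replicate mean above 50%; inconclusive = above 50% but judged a plate artefact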;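 also: 50 nL library stock added to about 25 µL; numbers are from one replicate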
Mtb hypoxia inh growth – second read-out of Mtb hypoxia inh, no call of its own (marks repeat the call); growth inhibition, %; measured here: M. tuberculosis growth (absorbance);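 0% = vehicle and 100% = reference antibiotic; read after six days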
An asterisk follows results filed as active; ? = inconclusive; / = not tested or not shown; & = joins results of further samples. Rows are unselected, and some 4.1% of all compounds hit somewhere here.

SMILES | RN4220 kill | PrP 5UTR inh | Mtb hypoxia inh | Mtb hypoxia inh growth | Sa ugtP lethal | Autofluor counter | BJeLR viability
CC(/C=N/NC(=O)c1nnn(-c2nonc2N)c1CN1CCCCC1)c1ccccc1 (configuration not stated) | / | -26 | / | / | / | 5960 | -3
CCOC(=O)N1CCN(C(c2cccnc2)c2ccc3cccnc3c2O)CC1 (configuration not stated) | 23 | -3 | 1 | 1 | 3 | 2465 | -2
CCCc1nc2oc3c(OCC)ncnc3c2c2c1COC(C)(C)C2 | 3.7 | 5 | 15 | 21 | 22 | 19175* | -10
COCCn1c(SCC(=O)Nc2nnc(C)s2)nnc1-c1ccncc1 | 1.7 | -16 | 4 | 10 | -2 | 11254 | 4
NC(=O)CSc1ncnc2c1nnn2Cc1ccc(F)cc1 | 8.0 | -28 | 14 | 5 | 5 | 4408 | 0
O=C1CCCCC/C1=N/Nc1ccc(OCc2ccccc2)cc1 | / | -22 | / | / | / | 4029 | -1
CCN(c1ccc(NC(=O)c2ccc(N3CCCC3=O)cc2)cc1)C(C)C | 0.8 | -38 | -4 | 15 | 4 | 6233 | 0
Cc1ccc2c(NC(=S)NC(=O)c3ccccc3)cccc2n1 | -1.5 | -21 | 7 | -11 | 15 | 4797 | -6
COc1ccc(/C=C/C(=O)NCC(=O)NN=C(CCC(=O)O)c2ccccc2)cc1 | 1.0 | / | 10 | 4 | 0 | / | /
CN1CCc2c(sc3c2c(=O)n(-c2cccc(Cl)c2)c2nncn32)C1 | 16 | -12 | 6 | 5 | 12 | 3868 | -6
COc1cc([N+](=O)[O-])ccc1-c1ccc(C=NNC(=O)OC(C)(C)C)o1 | -0.9 | / | 9 | -6 | -4 | / | /
C=CCOc1c2ccc(C(=O)NC3CCCc4ccccc43)cc2nn1C (configuration not stated) | -11 | -3 | 10 | 2 | -5 | 4107 | -5
O=C(COc1ccccc1Br)NCc1ccccn1 | 6.5 | -22 | 9 | 13 | -1 | 22895* | -28
O=Cc1ccc(OC(=O)c2cccnc2)cc1 | / | -3 | / | / | / | 2574 | -5
N#CCC(=O)NC1CCC(CC2CCC(NC(=O)CC#N)CC2)CC1 (configuration not stated) | 4.7 | -9 | 3 | 3 | 10 | 4238 | 10

Quoted from the listing.
Reading of CCN(c1ccc(NC(=O)c2ccc(N3CCCC3=O)cc2)cc1)C(C)C under RN4220 kill: 0.8
Reading of O=C(COc1ccccc1Br)NCc1ccccn1 under Autofluor counter: 22895*

(continued)
SMILES | RN4220 kill | PrP 5UTR inh | Mtb hypoxia inh | Mtb hypoxia inh growth | Sa ugtP lethal | Autofluor counter | BJeLR viability
Cc1cnc(NC(=O)C2CC=CCC2)s1 (configuration not stated) | -7.3 | -15 | -11 | -4 | -2 | 3595 | -14
Cc1ccccc1NC(=O)C1CCN(S(=O)(=O)c2cccs2)CC1 | 9.7 | -1 | 6 | 11 | 1 | 4176 | 0
CC1Cc2ccccc2N1C(=O)COC(=O)Cn1nnc(-c2ccccc2)n1 (configuration not stated) | 4.1 | -18 | 12 | 7 | -3 | 3270 | 1
O=C1NC(Cc2ccccc2)C(=O)N2C1C[C@@]1(Br)c3ccccc3N(S(=O)(=O)c3ccccc3)C21 (some centres not stated) | 19&15 | / | 12&19 | 6&10 | 11&11 | / | /
CCOc1ccc(NCCC(O)c2ccc(F)cc2)cc1 (configuration not stated) | 2.8 | -16 | 19 | 8 | 15 | 4146 | 4
Nc1ncnc2c1ncn2CCOc1ccccc1 | 5.7 | -32 | -1 | 8 | 6 | 6717 | 9
COc1ccc(NC(=O)C2CCCN(c3nccc(C)n3)C2)cc1 (configuration not stated) | 1.7 | -24 | 2 | 9 | 2 | 4584 | -11
COc1ccccc1-n1cc(CN2CCN(CC(C)C)C(CCO)C2)cn1 (configuration not stated) | 14 | 16 | 5 | 8 | 3 | 4057 | 0
Cc1ccc(-c2onc3ccc(C=O)cc23)cc1 | 12 | -24 | -4 | -1 | -6 | 2649 | 9
O=C(CNC(=O)c1ccccc1Br)N/N=C/c1cc(Br)ccc1O | / | 1 | / | / | / | 1999 | 1
Cc1ccc(CN2CCN(Cc3cn(C)nc3C)CC2CCO)o1 (configuration not stated) | 0.9 | -10 | 6 | 7 | 8 | 2264 | 1
CC(/C=C\C=C\c1ccccc1)=N\NC(=O)c1cncc(Br)c1 | / | 2 | / | / | / | 2291 | -3
O=C(CSc1nc(C2CC2)n(-c2ccccc2)n1)NCc1ccco1 | 3.1 | -2 | 1 | 2 | 3 | / | /
N#C/C(=C(/O)c1ccc(Cl)cc1)c1nc2ccccc2[nH]1 | 3.9 | -16 | 3 | 4 | 1 | 3811 | 8
O=C(CSc1nc(-c2ccco2)cc(C(F)(F)F)n1)NCC1CCCO1 (configuration not stated) | 5.8 | -22 | 8 | 4 | 11 | 9708 | -12
O=C(CSc1nnnn1-c1ccc2c(c1)CCC2)NCc1cccs1 | 1.3 | -10 | 5 | 2 | 3 | 7326 | 15
COC(C(=O)NN=C(C)c1ccc(C(C)(C)C)cc1)c1ccccc1 (configuration not stated) | 2.9 | / | 7 | -2 | 28 | / | /
COc1ccc(CN(CCC(c2ccco2)C(C)C)C(C)=O)cc1OC (configuration not stated) | 7.8 | -28 | 6 | 5 | 10 | 3490 | -11
O=C(C1CC1)N1CCc2cc(S(=O)(=O)NCCC3=CCCCC3)ccc21 | 4.9 | -13 | / | / | 8 | 4827 | 1
O=C(c1ccco1)N1CCC(N2CCN(c3ccccc3)CC2)CC1 | 2.1 | -10 | -1 | 10 | 5 | / | -5
O=c1c2ccccc2nc2c3ccccc3c3nncn3n12 | -12 | -12 | 0 | 6 | 0 | / | 4
CC1CCCCN1CCNC(=O)c1cc2c(=O)n(C)c3ccccc3c2n1C (configuration not stated) | -2.5 | -24 | / | / | 10 | 6485 | -4
COC(=O)CC/C(O)=C1\C(=O)CC(C)(C)CC1=NCCc1nc2ccccc2[nH]1 | 1.0 | -17 | 12 | 11 | 2 | 2485 | -6
Cc1c(Cl)cccc1NC(=O)c1ccccc1-c1ccccc1C(=O)O | 3.1 | -18 | / | / | 7 | 3159 | -11
COc1ccc(OC)c(S(=O)(=O)CC(O)CS(=O)(=O)c2ccccc2)c1 (configuration not stated) | 7.5 | -2 | -5 | -1 | 5 | 5872 | 9
CC1Cc2cc(C(=O)O)ccc2O1 (configuration not stated) | -9.3 | -18 | 4 | 6 | -2 | 2846 | -7
ON=C1CCCc2ccc3ccccc3c21 | 5.7 | / | -8 | 0 | 10 | / | /
O=C(Nc1ccccc1)OCc1ccccn1 | 2.9 | -40 | 16 | 9 | 3 | 3437 | -13
CC(C)OC(=O)CN1C(=O)C(C)(C)Oc2ccc(C(=O)NC(C)(C)C)cc21 | 4.3 | -15 | 0 | 11 | -8 | 9575 | 7
C#CCOC(=O)c1ccccc1C(=O)n1nnc2ccccc21 | 6.7 | -14 | 8 | 11 | -3 | 11149 | -1
COc1cc(S(=O)(=O)n2ccnc2)ccc1Br | 4.2 | -39 | -4 | 10 | 7 | 2529 | -13
COc1ccc(-n2[nH]c(C)cc2=O)cc1 | -7.6 | -16 | 5 | 5 | -8 | / | 10
CCN(C(=O)C1CC1)C1CCS(=O)(=O)C1 (configuration not stated) | 0.3 | 2 | 2 | -3 | 1 | 4069 | -1
Cc1cccc(/C=N/NC(=O)c2ccc(Br)cc2)c1 | / | -60 | / | / | / | 2505 | 3
COc1ccc(NC(=O)CSc2nc3sc4c(c3c(=O)n2-c2ccc(OC)cc2)CCN(C)C4)cc1 | 3.5 | -5 | 10 | 5 | 10 | 6185 | -2
O=C(Oc1ccc(=O)n(-c2ccccc2)n1)c1ccc(F)cc1 | 0.3 | -1 | 7 | 4 | 8 | 4301 | 1
O=C(c1cc(-c2cccs2)nc2ccccc12)N1CCN(S(=O)(=O)c2ccccc2)CC1 | 0.6 | -17 | 0 | 1 | 20 | 16484* | 7
O=C(NC1CCCCC1)c1cc([N+](=O)[O-])ccc1N1CCCCC1 | -3.3 | 6 | -4 | -6 | 0 | 23223* | -9
CCOC(=O)c1cc(-c2ccc3c(c2)OCCO3)nc2c1c(C)nn2CCC#N | 3.7 | 9 | 0 | 12 | -11 | 2554 | 5
c1ccc(N2CCN(c3ncnc4scc(-c5cccs5)c34)CC2)cc1 | 3.8 | -6 | 8 | 5 | 8 | 8399 | /
CCOc1ccc(-c2cc(C(=O)NCCCN3CCCC3)c3ccccc3n2)cc1 | 1.8 | -3 | -3 | 12 | 4 | 6564 | 9
CC(=O)Nc1ccc(S(=O)(=O)N2CCN(C(=O)N3CCCCC3)CC2)cc1 | 0.3 | -20 | 4 | 1 | 4 | 3701 | 9
NN=C1CCCc2nonc21 | 6.3 | / | 12 | 5 | 4 | / | /
CCC(=O)OCc1c(C(F)(F)F)nn(C)c1Sc1ccc(F)cc1 | 6.1 | -21 | 11 | 2 | 16 | 8845 | -1
CSc1ncccc1C(=O)Nc1ccc(F)c(F)c1F | 0.9 | -14 | 5 | 2 | -3 | 4536 | -2
Cc1oc(-c2ccc(C(F)(F)F)cc2)nc1CN(Cc1ccccn1)C[C@@H]1CCC(=O)N1 | -4.2 | 4 | 0 | 3 | 10 | 2029 | -3
O=C(c1cc(-c2ccc(F)cc2)on1)N1CCOCC1 | 0.4 | -43 | 12 | 3 | -1 | 3940 | 1
CCOC(=O)c1ccc(N2CCN(c3cc(C)ccc3C)CC2)c(N)c1 | 0.5 | -13 | 11 | 8 | 4 | 3497 | -1
Cc1nc2c(cc1C(=O)N/N=C/c1ccc(O)c(O)c1)c(=O)n(C)c(=O)n2C | / | 1 | / | / | / | 2449 | -10
COc1ccc(NC(=O)CCc2ccc(OC)c(OC)c2)cn1 | 1.2 | -4 | -5 | 9 | 6 | 3706 | -2
COc1ccc(NC(=O)C/C(C)=N/NC(=O)c2cnccn2)cc1 | / | -16 | / | / | / | 4196 | 0
O=S(=O)(c1ccc(SCc2ccccc2)nc1)N1CCCCC1 | 0.4 | -11 | 7 | 1 | 1 | / | /
O=C(NCCCN1CCOCC1)c1cc2c(s1)CCCC2 | -3.2 | -22 | 1 | 11 | -6 | ? | -5
CCc1ccc(OCC(O)CN2CCC(CN3C(=O)c4cccc5cccc(c45)C3=O)CC2)cc1 (configuration not stated) | 80 | -4 | -10 | 10 | 85* | 2455 | 19
C=CCNC(=S)/C(=C(/[O-])c1ccc([N+](=O)[O-])cc1)[n+]1ccccc1 | 0.7 | -17 | -5 | -5 | -4 | 4614 | 10
N/C(=N\OC(=O)CCCN1C(=O)c2ccccc2C1=O)c1ccccn1 | / | -15 | / | / | / | 2095 | 11
O=C(Nc1ccc(-c2noc(-c3ccccc3F)n2)cc1)c1cccs1 | 7.3 | -62 | 5 | 10 | -6 | 2192 | 4
COC(=O)/C(=C\Nc1cccc(Cl)c1C)c1ncc(C(F)(F)F)cc1Cl | -3.9 | -5 | / | / | -5 | 2858 | 4
Cc1nc(SCC(=O)NCc2cccs2)nc(C)c1C | 10 | -34 | 2 | 12 | 2 | 4859 | -1
Cc1ccc(NC(=O)C(C)OC(=O)/C=C/c2ccccc2)cc1 (configuration not stated) | 0.5 | -11 | 8 | 2 | 3 | 5690 | -2
(further entries)
SMILES | RN4220 kill | PrP 5UTR inh | Mtb hypoxia inh | Mtb hypoxia inh growth | Sa ugtP lethal | Autofluor counter | BJeLR viability
Cc1ccc(C(=O)Oc2ccc(C(=S)N3CCOCC3)cc2)cc1 | 7.5 | -7 | 6 | -3 | 19 | 3125 | 5
Cc1cccc(NC(=S)/N=C(\N)Nc2nc(C)c3cc(C)ccc3n2)c1 | 4.3 | -5 | 13 | -1 | -2 | 9455 | 4
Cc1ccc(-c2cc(C(=O)NNC(=O)c3csc(N4CCOCC4)n3)c3ccccc3n2)cc1 | 1.0 | 3 | -9 | -9 | 0 | 2819 | /
O=C(Cc1ccccc1)Nc1cccc(C(=O)NN=Cc2ccco2)c1 | -0.9 | / | 2 | 2 | 0 | / | /

Profiles, quoted from the list. Order of values: RN4220 kill	PrP 5UTR inh	Mtb hypoxia inh	Mtb hypoxia inh growth	Sa ugtP lethal	Autofluor counter	BJeLR viability
`Cc1ccc(C(=O)Oc2ccc(C(=S)N3CCOCC3)cc2)cc1` as listed: 7.5	-7	6	-3	19	3125	5
`Cc1cccc(NC(=S)/N=C(\N)Nc2nc(C)c3cc(C)ccc3n2)c1` as listed: 4.3	-5	13	-1	-2	9455	4
`O=C(Cc1ccccc1)Nc1cccc(C(=O)NN=Cc2ccco2)c1` as listed: -0.9	/	2	2	0	/	/
`Cc1ccc(-c2cc(C(=O)NNC(=O)c3csc(N4CCOCC4)n3)c3ccccc3n2)cc1` as listed: 1.0	3	-9	-9	0	2819	/

Screens (PubChem BioAssay)
